# Mtb growth – M. tuberculosis H37Rv growth inhibitors, H37Rv strain (AID 1626). M. tuberculosis H37Rv growth inhibition; higher % means a stronger effect. inhibition, % at 10 µM, or IC50 in µM where a hit was titrated. 220,000 compounds, 0.95% hits;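 active means confirmed in a dose series; inconclusive means inhibition above 80% but not taken into the dose series; inactive means below 80% or under 30% at every dose of the series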;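 further: bacteria incubated seven days before Alamar blue readout; 0% = bacteria only wells and 100% = bacteria with antibiotic wells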
# RecA intein inh – Mtb RecA intein splicing inhibition; inhibition, %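 (about 9 µM by stock and volumes)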; 290,000 compounds, 0.75% hits; cell-free RecA intein splicing, fluorescence; in the data active means inhibition above about 30%; inconclusive means no clear call, values can overlap the other calls;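 further: 0% = vehicle wells and 100% = reference inhibitor control wells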
# Target sequence (P9WHJ3 whole entry, looked up): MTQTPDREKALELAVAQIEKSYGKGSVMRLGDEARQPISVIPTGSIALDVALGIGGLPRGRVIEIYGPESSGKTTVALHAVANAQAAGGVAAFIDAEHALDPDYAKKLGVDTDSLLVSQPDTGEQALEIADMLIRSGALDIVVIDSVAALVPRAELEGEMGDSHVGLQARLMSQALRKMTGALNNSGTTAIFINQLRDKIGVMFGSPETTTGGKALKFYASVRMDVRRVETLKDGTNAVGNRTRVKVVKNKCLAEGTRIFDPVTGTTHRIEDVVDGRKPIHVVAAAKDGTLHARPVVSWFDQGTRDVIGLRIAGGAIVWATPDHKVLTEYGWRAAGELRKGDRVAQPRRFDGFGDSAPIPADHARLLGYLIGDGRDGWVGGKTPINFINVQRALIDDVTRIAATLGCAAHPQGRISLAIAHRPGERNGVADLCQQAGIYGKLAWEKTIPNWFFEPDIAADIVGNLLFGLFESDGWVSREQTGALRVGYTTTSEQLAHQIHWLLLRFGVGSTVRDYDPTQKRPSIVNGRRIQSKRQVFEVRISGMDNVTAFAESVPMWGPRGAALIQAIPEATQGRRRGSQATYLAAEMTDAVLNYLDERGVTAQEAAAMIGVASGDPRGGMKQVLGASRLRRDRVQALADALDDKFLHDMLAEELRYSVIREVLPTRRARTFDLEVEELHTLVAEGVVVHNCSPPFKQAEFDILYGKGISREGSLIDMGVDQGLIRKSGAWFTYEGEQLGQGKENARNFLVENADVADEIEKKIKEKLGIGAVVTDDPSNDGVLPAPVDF
# Mtb bLac sens – beta-lactam sensitization of Mtb H37Rv | M. tuberculosis H37Rv growth with meropenem, percent inhibition; hits of this screen are not shown here | 330,000 compounds, 0.27% hits | AID 434955 | inhibition, % at 25 µM;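 active means about 74% or more and at least 40 points above the plate without the antibiotic, then above 30% in a dose series; inconclusive means first-round hits that could not be retested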;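 further: growth measured after seven days incubation then overnight dye step; 0% = bacteria only wells and 100% = bacteria with antibiotic; twin plates without the antibiotic show which effects depend on it; some results filed as inactive read as strong as hits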
# Arbovirus inh – arbovirus infection inhibition | arbovirus infection cell-based antiviral screen | inhibition, % at 10 µM | 200,000 compounds, 0.37% hits | AID 1251;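 active means inhibition from about 30%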;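 further: bluetongue infection of BSR cells; cell survival read as ATP light after 72 h; 0% = infected wells without compound and 100% = uninfected wells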
# YopH PTP inh – blocks Yersinia enterocolitica YopH tyrosine phosphatase | fluorescence Ex485/Em525 | inhibition, %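 (about 10 µM by stock and volumes)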 | 140,000 compounds, 0.16% hits;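 active means inhibition of 50% or more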;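 further: controls were vehicle for no effect and minimum signal wells for full effect; inactives centre near -20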
# Arbovirus inh repeat – second read-out of Arbovirus inh, no call of its own (marks repeat the call); inhibition, %; measured here: 10K subset replicate screen; many hits read low in the repeat;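 first of two repeat runs on a subset; 0% = infected and 100% = uninfected wells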
# Active calls of the source: *; ? = inconclusive; / = not tested or not shown. Some of the compounds tested; the hit share may differ from the screen's.
# A first look:
SMILES,Mtb growth,RecA intein inh,Mtb bLac sens,Arbovirus inh,YopH PTP inh,others
COc1cc(C(=O)NC(=S)Nc2ccc([N+](=O)[O-])cc2C)cc(OC)c1OC,7%,-0.2,2,-5,-47,
Cc1nc(/N=C(\N)Nc2ccccc2)nc2ccccc12,-4%,-1.3,/,3,-51,
CC(C)OCCCNC(=O)Cn1ccc2cc(S(=O)(=O)N3CCCCCC3)ccc21,/,1.8,3,/,/,
CCc1ccc(NP(=O)(Oc2ccccc2F)Oc2ccccc2F)cc1,8%,9.4,0,-17,/,
COc1ccccc1N1C(=O)C2ON(c3ccccc3)C(c3ccc(N(C)C)cc3)C2C1=O (stereo unspecified),5%,/,-1,1,-2,
O=C(c1ccc(CNS(=O)(=O)c2ccccc2)cc1)N1CCC2(CC1)OCCO2,/,/,-6,9,-47,
COC(C(=O)Nc1cccc(F)c1)c1ccccc1 (stereo unspecified),-15%,0.6,1,-4,2,
O=C1Nc2cccnc2N(C(=O)CCl)c2ccccc21,/,-2.5,40,/,/,
Cc1ccc2nc(-c3ccc(NC(=O)c4ccco4)cc3)[nH]c2c1,-2%,0.2,?,-23,-1,
CCCOc1ccc(N2CC(C(=O)NC(C)C)CC2=O)cc1 (stereo unspecified),-6%,0.2,0,7,-57,
CCCCCCCCCC(=O)NNC(=O)c1c(O)c2ccccc2n(CC)c1=O,-4%,/,1,-4,/,
CCOc1ccc(-n2cc(C(=O)Nc3cccc(OC)c3)c3cc(OC)c(OC)cc3c2=O)cc1,-5%,3.4,0,-3,-3,
O=C(O)c1ccccc1C1=Nc2ccc(O)cc2Oc2cc(O)ccc21,-3%,-1.0,-4,-6,-40,
COCCNS(=O)(=O)c1cc(Br)ccc1OC,-3%,-5.6,-19,-4,-2,
O=C(Cc1coc2ccc3ccccc3c12)Nc1nccs1,5%,-2.3,50,4,3,

# The whole of this part (from the top)
SMILES,Mtb growth,RecA intein inh,Mtb bLac sens,Arbovirus inh,YopH PTP inh,others
COc1cc(C(=O)NC(=S)Nc2ccc([N+](=O)[O-])cc2C)cc(OC)c1OC,7%,-0.2,2,-5,-47,
Cc1nc(/N=C(\N)Nc2ccccc2)nc2ccccc12,-4%,-1.3,/,3,-51,
CC(C)OCCCNC(=O)Cn1ccc2cc(S(=O)(=O)N3CCCCCC3)ccc21,/,1.8,3,/,/,
CCc1ccc(NP(=O)(Oc2ccccc2F)Oc2ccccc2F)cc1,8%,9.4,0,-17,/,
COc1ccccc1N1C(=O)C2ON(c3ccccc3)C(c3ccc(N(C)C)cc3)C2C1=O (stereo unspecified),5%,/,-1,1,-2,
O=C(c1ccc(CNS(=O)(=O)c2ccccc2)cc1)N1CCC2(CC1)OCCO2,/,/,-6,9,-47,
COC(C(=O)Nc1cccc(F)c1)c1ccccc1 (stereo unspecified),-15%,0.6,1,-4,2,
O=C1Nc2cccnc2N(C(=O)CCl)c2ccccc21,/,-2.5,40,/,/,
Cc1ccc2nc(-c3ccc(NC(=O)c4ccco4)cc3)[nH]c2c1,-2%,0.2,?,-23,-1,
CCCOc1ccc(N2CC(C(=O)NC(C)C)CC2=O)cc1 (stereo unspecified),-6%,0.2,0,7,-57,
CCCCCCCCCC(=O)NNC(=O)c1c(O)c2ccccc2n(CC)c1=O,-4%,/,1,-4,/,
CCOc1ccc(-n2cc(C(=O)Nc3cccc(OC)c3)c3cc(OC)c(OC)cc3c2=O)cc1,-5%,3.4,0,-3,-3,
O=C(O)c1ccccc1C1=Nc2ccc(O)cc2Oc2cc(O)ccc21,-3%,-1.0,-4,-6,-40,
COCCNS(=O)(=O)c1cc(Br)ccc1OC,-3%,-5.6,-19,-4,-2,
O=C(Cc1coc2ccc3ccccc3c12)Nc1nccs1,5%,-2.3,50,4,3,
CCNC(=O)CC1C(=O)N(c2ccc(F)cc2)C(=S)N1CCc1ccncc1 (stereo unspecified),5%,7.7,0,0,/,
Cc1c(Cl)cnc(NC(=O)COC(=O)c2ccc(S(=O)(=O)NCc3ccco3)cc2)c1Cl,-2%,1.0,10,0,-12,
Cn1nnnc1SCC(=O)NCc1cc([N+](=O)[O-])ccc1O,0%,/,-4,18,/,
O=C(COC(=O)C1CC(=O)N(Cc2ccccc2)C1)Nc1ccccc1F (stereo unspecified),4%,0.2,4,12,/,
CCCCCCCSc1cc(OC)c(CCN(C)C)cc1OC,21%,5.3,-1,-34,-12,
Cc1ccc(CSCCNC(=O)c2ccc(C)cc2)cc1,3%,/,1,2,/,
CCn1cc2nc(SCC(=O)Nc3ccccc3F)n(Cc3ccccc3)c(=O)c2n1,/,2.6,15,/,/,
CNC(=O)COc1cccc(C(=O)NCc2ccccc2)c1,2%,9.6,2,-4,-21,
C[C@@H](C(=O)N1CCN(C(=O)OC(C)(C)C)CC1)n1cc(-c2cn([C@@H](C)C(=O)N3CCN(C(=O)OC(C)(C)C)CC3)nn2)nn1,-1%,0.4,/,/,/,
CC/C(=N\O)C(C)(C)/[N+]([O-])=C/c1ccc(Br)cc1,0%,-2.8,-1,5,-28,
OCC[C@@H]1C[C@H](O)[C@@H](O)[C@]2(Cc3ccccc3CO2)O1,/,-3.2,-8,/,/,
CCOC(=O)Cn1nc(C)c([N+](=O)[O-])c1C,5%,-2.4,3,14,/,
COc1ccc(C(=O)Nc2ccc(S(=O)(=O)Nc3onc(C)c3C)cc2)c(OC)c1,3%,2.1,3,2,/,
O=C1c2ccccc2C(=O)N1CCc1csc(-c2cccc(F)c2)n1,-3%,0.0,8,-3,-8,
Cc1ccccc1COc1ccc2oc(C)c(C(=O)O)c2c1,7%,-5.7,7,/,/,
COCCNC(=O)C(c1cccc(OC)c1)N(Cc1cccs1)C(=O)Cn1nnc2ccccc21 (stereo unspecified),-7%,0.8,-4,1,-14,
CCCn1cc(CN2CCCC(C(=O)c3cccc(OC(C)C)c3)C2)c(C)n1 (stereo unspecified),-5%,-0.1,0,0,/,
COc1ccc(C(=O)NCc2ccc3c(c2)cc(C)n3C)cc1OC,-3%,1.9,7,14,/,
O=C(Nc1ccccc1N1CCOCC1)c1cc(Br)c(Br)s1,5%,0.5,3,3,/,
NC(=O)Cc1ccc(C(=O)c2ccccc2)s1,-3%,3.6,-6,-1,/,
CC(=O)Nc1ccc(S(=O)(=O)Nc2nc3ccccc3s2)cc1,-10%,-3.0,2,6,-10,
CC(=O)c1cc(-c2ccc(F)cc2)n(CC(=O)NCc2cccs2)c1C,-1%,1.2,-6,-25,-52,
CC(=O)Nc1ccc(SCC(=O)OCC(=O)NC(=O)NCc2ccco2)cc1,/,-0.5,6,7,-28,
O=C(CSCc1nc2c(nnn2Cc2ccc(F)cc2)c(=O)[nH]1)Nc1cccc(C(F)(F)F)c1,-6%,3.4,1,0,/,
CC1(C)Oc2ccc3ccc(=O)oc3c2C[C@H]1O,-8%,-3.2,-2,/,/,
Cc1cc(Cl)ccc1NC(=O)C1COc2ccccc2O1 (stereo unspecified),/,-5.1,15,/,/,
C=CCN1C(=O)C(CC(=O)Nc2ccccc2)N(Cc2ccccn2)C1=S (stereo unspecified),-5%,2.9,0,0,/,
COc1cccc(-c2nc(N3CC(C)CC(C)C3)c3ccccc3n2)c1O (stereo unspecified),/,5.9,/,-2,-5,
COc1cc(-c2nc3ccccn3c2/N=C/c2cccc(OC)c2O)ccc1O,-1%,-76,5,-10,/,
COc1ccc(S(=O)(=O)N(c2onc(C)c2Cl)S(=O)(=O)c2ccc(OC)cc2)cc1,-6%,0.2,?,17,-38,
CCCOc1cccc(NC(=O)OC2CCN(C)CC2)c1,2%,-0.3,-4,-26,-4,
CCCCN(C(=O)Cn1nnc2ccccc21)C(C(=O)NCCOC)c1ccc(OC)cc1OC (stereo unspecified),6%,-3.4,-11,-1,/,
CCCCC[C@H](O)/C=C/[C@@H]1[C@@H](CCCCCCC(=O)O)[C@@H](O)C[C@H]1O,-5%,-1.2,-2,4,-23,
CC(=O)Nc1nonc1NC(C)=O,-8%,0.9,-2,6,-5,
CCc1ccccc1NC(=S)N(CCN(C)C)C(C)c1cccnc1 (stereo unspecified),7%,-1.1,-5,1,/,
CCc1ccc(CN2C(=O)c3ccccc3C2C(=O)NCc2cccnc2)cc1 (stereo unspecified),2%,0.3,-10,-1,/,
Cc1ccc(Nc2nc(C(=O)NCC3CCCO3)cs2)cc1 (stereo unspecified),/,0.1,-2,/,/,
Cc1ccccc1C(OCCN(C)C)C1CCCCC1 (stereo unspecified),2%,2.4,-3,-2,-18,
Cc1ccnc(NC(=O)c2ccc(S(=O)(=O)N3CCCCCC3)cc2)c1,/,4.1,-13,/,/,
CCOC(=O)c1nn(-c2ccccc2)c2nc(Nc3ccccc3)cc(=O)n12,62%,0.0,99,-1,1,
O=[n+]1cc(-c2ccccc2)n([O-])c2c1CCC2,5%,-6.0,-4,3,-37,
Cc1[nH]c2c(Cl)cccc2c1CCN,-4%,0.9,5,/,3,
COc1ccc(CNC(=O)CCN2C(=O)c3ccncc3C2=O)cc1OC,-3%,0.6,-1,/,/,
COc1ccc(/C=N/NC(=O)C(C)n2cnc3ccccc3c2=O)cc1 (stereo unspecified),-7%,12,3,1,-25,
CCCNC(=O)c1ccccc1NC(=O)COc1ccc(OC)cc1,-4%,-0.4,-11,2,-17,

# The list goes on.
SMILES,Mtb growth,RecA intein inh,Mtb bLac sens,Arbovirus inh,YopH PTP inh,others
O=C(Oc1ccc(N(Cc2cccs2)C2=NS(=O)(=O)c3ccccc32)cc1)c1ccccc1Cl,10%,-2.1,2,-3,29,
CCCCC(CC)CNC(=O)C(=O)c1ccccc1NC(C)=O (stereo unspecified),-5%,-2.3,-2,-15,-26,
CCCCCN(C(=O)CCC(=O)OCc1cccc(C)c1)c1c(N)n(CCCC)c(=O)[nH]c1=O,/,0.5,-9,/,/,
O=C(CSc1nc2nc3c(cc2c(=O)n1-c1ccccc1)CCCC3)Nc1ccccc1,-2%,0.8,4,-13,-17,
CC(=O)/C(N=Nc1cccc(C(F)(F)F)c1)=C(\C)O,3%,2.1,-3,1,/,
Cc1cc(NCCC(C)C)n2nc(C)c(-c3ccccc3)c2n1,11%,2.5,73,1,-15,
CCNc1ccc(C(=O)O)cc1N,-4%,-2.0,0,4,-16,
O=C(NCC1CCN(c2ccc(S(=O)(=O)N3CCOCC3)cc2)CC1)c1cccc(Cl)c1,?,5.0,100,1,-12,
O=C(COc1ccccc1F)N1CCN(S(=O)(=O)/C=C/c2ccccc2)CC1,-3%,0.0,?,3,-12,
COc1ccccc1C(=O)OCn1nnc2ccccc2c1=O,?,-3.9,97,0,/,Arbovirus inh repeat=1
CCc1ccc2oc(-c3cc(N)cc(C)c3O)nc2c1,10%,/,/,-12,-22,
O=C(CN1CCN(CC(=O)Nc2ccccc2F)CC1)Nc1ccc2c(c1)OCCO2,-3%,0.7,1,17,/,
O=C(CSc1nc2ccc(Cl)cc2[nH]1)NCCc1ccccc1,-2%,0.0,13,3,-22,
CCOC(=O)N1CCC(N2C(=O)c3ccccc3C2Nc2ccc(S(=O)(=O)N3CCOCC3)cc2)CC1 (stereo unspecified),1%,2.0,-1,2,/,
O=C(CCc1n[nH]c(=O)[nH]c1=O)N/N=C/c1ccc(Br)o1,0%,-1.0,-1,0,/,
CCC(C)C(NC(=O)c1ccc(Cl)cc1Cl)C(=O)O (stereo unspecified),1%,-1.8,-4,6,-46,
CCOc1ccc(CCNC(=O)c2cc([N+](=O)[O-])ccc2N2CCOCC2)cc1OCC,/,1.5,-11,/,/,
COc1cc(CN2CCc3ccc(NC(=O)CCc4ccccc4OC)cc3C2)ccc1O,/,6.0,?,/,/,
c1ccc2c(Nc3nncs3)c3ccccc3nc2c1,-1%,-0.1,7,/,/,
COc1cc(-c2cc(-c3ccc(O)cc3)nc(N)c2C#N)ccc1O,9%,7.7,32,-6,/,
O=C(O)c1cc2ncc(-c3[nH]ncc3[N+](=O)[O-])cn2n1,2%,5.7,-12,4,/,
Nc1c(C(=O)c2ccco2)oc2ccccc12,3%,1.9,3,-2,/,
O=S(=O)(Nc1ncccn1)c1ccccc1,/,-6.2,-8,/,/,
CCOC(=O)C(Oc1ccc2c(-c3ccc(OC)cc3)cc(=O)oc2c1C)c1ccccc1 (stereo unspecified),12%,-0.3,3,-5,3,
Nc1c(-c2ccccc2)sc2ccc3ccccc3[n+]12,/,0.3,10,/,/,
Cc1cc(S(=O)(=O)NCC(c2ccc(F)cc2)N2CCN(C)CC2)ccc1F (stereo unspecified),/,2.1,3,/,/,
Cc1nc(SCC(=O)Nc2ccccc2Cl)oc1C,/,0.8,-3,/,/,
CC(=O)c1cc(CN2CCC(n3nccc3NC(=O)c3ccccc3)CC2)cs1,/,2.0,0,/,/,
